VACV E9 pol inh: vaccinia E9 polymerase processive synthesis inhibition. in vitro processive DNA synthesis, absorbance read-out; stronger effect = lower value; some inactives read as strong as hits. normalized absorbance, % (concentration not given with the values). hit rate 0.94% among 46,000;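 active = replicate mean up to 90% and picked by the depositor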;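 also: 100% = median of the test wells of a plate; 100 nL library stock went into each well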
Numbers without * were called inactive.

SMILES	VACV E9 pol inh
COc1ccc(C(=O)N=c2sc3cc(C)ccc3n2C)c(OC)c1	98.6
CCNC(=S)N1c2ccccc2NC2=C(C(=O)CC(C)(C)C2)C1c1ccc(N(C)C)cc1 (centres undefined)	100.2
CC(C)C(=O)Nc1ncc(C(F)(F)F)cc1Cl	100.5
CC(=O)n1c2ccccc2c2c(-c3ccccc3)c(N3CCOCC3)sc21	98.1
Cc1ccc2nc(NCCO)nc(-c3ccccc3)c2c1	82.6
CCOC(=O)c1ccccc1NC(=O)c1nc(-c2ccc(C)cc2)n2c1CCCCC2	102.1
COC(=O)c1c(-c2ccccc2Cl)noc1C	98.7
Cc1nc(SCc2ccc(C(F)(F)F)cc2)c2c(=O)n(C)c(=O)n(C)c2n1	103.4
Cc1cc(C)c(NC(=O)Cn2cnc3ccccc32)c(C)c1	99.2
COC(=O)CNC(c1ccccc1)c1cc(Br)ccc1N (centres undefined)	96.2
O=C(Nc1cc2c(oc1=O)CCCC2=O)c1ccccc1	72.1
CCCCC(=Nc1ccccc1)C1=C(O)CCCC1=O	99.0
CC(=O)Nc1ccc(S(N)(=O)=O)cc1	103.5
CCCc1cc2c(c(NC(C)=O)n1)c(=O)oc1ccccc12	98.9
COC(=O)c1cc2n(n1)CCCNC2=O	114.6
Cc1ccc(C=Nc2ccccc2Sc2c(C)n[nH]c2C)cc1	100.2
CC1CC(C)CN(C(=O)c2cc3sc(Cl)cc3n2C)C1 (centres undefined)	99.4
CCC1CCCCN1C(=O)CSC1CCCCC1 (centres undefined)	101.1
CC(NC(=O)Nc1ccccn1)N1C(=O)C2C3C=CC(C3)C2C1=O (centres undefined)	100.2
COc1ccc2cc(-c3nc4ccccc4n3C)c(=O)oc2c1	101.7
CCOc1ccc(NC(=O)Cn2cccc2)cc1	101.5
Clc1ccc(CSc2nc3ccccc3s2)cc1	99.8
CC1=C(C(=O)Nc2ccccc2)SCCO1	100.7
Cc1cc(C)nc(/N=C/c2c(O)c3ccccc3oc2=O)n1	101.3
O=C(NCCN1CCc2ccccc2C1)c1cc(-c2ccc(Br)s2)nc2ccccc12	98.5

Later entries:
SMILES	VACV E9 pol inh
CCC1=NCC(=O)Nc2ccc(Cl)cc21	100.0
N=C1C(c2nc3ccccc3[nH]2)=C(O)CN1C1CCCCCC1	111.0
CCCCC1(COC(=O)c2ccc(OC)cc2)C(=O)N(c2ccccc2)N(c2ccccc2)C1=O	105.6
COc1cc(C2Sc3ccccc3NC3=C2C(=O)OC3)cc(OC)c1OC (centres undefined)	94.8
NC(=O)C1CCN(c2c(Cl)cncc2Cl)CC1	109.4
CN1CCCc2cc(-c3ccnc4ccccc34)ccc21	97.7
CCc1ccccc1NC(=O)CCN1C(=O)c2ccccc2C1=O	100.8
N#Cc1nc(=O)n(-c2ccc(OC(F)(F)F)cc2)c(N)c1N=Cc1ccc(C(F)(F)F)cc1	100.1
O=C(Cn1ncc2ccccc21)N1CCC(Cc2ccccc2)CC1	99.3
COC(=O)C1=C(C)OC(N)=C(C#N)C12C(=O)N(C)c1ccccc12 (centres undefined)	96.2
C=CCn1c(SCC(=O)Nc2ccc(C)cc2)nc2sc3c(c2c1=O)CCCC3	100.1
CC(C)(O)c1nnn(Cc2ccccc2)c1C(C)(C)O	99.8
O=C(CSc1nc2sc3c(c2c(=O)[nH]1)CCCC3)Nc1nccs1	100.4
CCN1CCN(S(=O)(=O)c2ccc3c4c(cccc24)C(=O)N3CC)CC1	98.9
CC1=CC(=O)N(CCC#N)c2ccccc2N1	95.7
Cc1nnc(C)n1/N=C/c1ccc(Cl)c(Cl)c1	81.9
CCOc1ccc2nc(SCC(=O)N3CCOCC3)sc2c1	99.4
COc1ccc(C(=O)CSc2nc3c(cc2C#N)CCC3)cc1	101.8
O=C(Sc1ccc(Oc2ccc(SC(=O)c3ccco3)cc2)cc1)c1ccco1	99.9
CCCn1nnnc1NCc1ccc(F)cc1	102.3
O=C1C=C(c2ccccc2)C(O)(c2ccccc2)C1 (centres undefined)	104.9
O=c1c(Cc2ccccc2)c(O)c2cccc3c4ccccc4n1c23	90.4
COc1cc(C(C)(C)C)c(OC)cc1C(C)(C)C	95.1
Cc1cc2c(cc1S(=O)(=O)N1CC(C)CC(C)C1)OCC(=O)N2 (centres undefined)	99.3
O=C(COCC(=O)c1ccccc1)Sc1nc2ccccc2s1	100.4

Carrying on.
SMILES	VACV E9 pol inh
O=C(O)c1ncoc1-c1cccc(Cl)c1	101.8
COc1ccc(NC(=O)c2ccc(CSc3ccccn3)cc2)cc1	94.0
CN1C(c2ccccc2)CC(=O)CC1c1ccccc1 (centres undefined)	103.8
Cn1cnnc1SCC(=O)c1ccc(C2CCCCC2)cc1	89.9
COc1ccc(CCNC(=O)c2cc(-c3ccccc3O)no2)cc1OC	104.4
O=C1C=CC(Br)=C/C1=C\N(O)c1ccccc1	89.3
COC(=O)c1sccc1-c1ccc(-c2ccn(S(=O)(=O)c3ccc(Cl)cc3)n2)o1	101.0
Cc1cccc(C(=O)Nc2nc(-c3ccc(F)cc3)cs2)c1	103.2
CCCCCCCCCCCCCCCCOC[C@H](COP(=O)([O-])OCC[N+](C)(C)C)OC(C)=O	100.2
N=c1c2cnn(-c3ccccc3)c2ncn1/N=C/c1ccc(Cl)cc1	105.3
CC1CN(S(=O)(=O)c2ccc(Cl)cc2)CCN1S(=O)(=O)c1ccc(Cl)cc1 (centres undefined)	99.7
CC(CCc1ccccc1)NCc1ccc(C(=O)O)s1 (centres undefined)	83.5
CC(=O)Nc1ccc(NC(=O)C2CC(=O)N(Cc3ccccc3)C2)cc1 (centres undefined)	79.2
C=C1N(c2ccc(Cl)cc2)C(=O)OC1(C)C	98.1
CC(=O)O[C@]1(C(C)=O)CCC2C3C[C@H](C)C4=CC(=O)CC[C@]4(C)C3CC[C@@]21C (some centres undefined)	98.5
CC1CC(=O)N(Cc2ccc(F)cc2)c2ccccc2S1(=O)=O (centres undefined)	80.0
N#Cc1ccccc1C(C#N)c1ccccc1 (centres undefined)	109.9
COc1cc(NC(=O)CCN2CCC(C)CC2)cc(OC)c1	106.6
COc1ccc(CNC(=O)c2ccc(C)c(C)c2)cc1	94.7
CC(NC(=O)C1CCCN1S(=O)(=O)c1ccccc1)c1ccccc1 (centres undefined)	99.7
COC1OC2COC(c3ccccc3)OC2C(O)C1O (centres undefined)	100.2
CCSC1=N/C(=C\c2ccc(C(C)C)cc2)C(=O)S1	99.6
CC(=O)Nc1ccc(S(=O)(=O)N2CCSC2c2ccccc2)cc1 (centres undefined)	91.1
COC(CNC(=O)c1cc2c(C)nc3ccccc3c2o1)OC	91.0
CN(C)CCN=c1cc(-c2ccccc2)oc2ccc(Cl)cc12	25.3*

A different layout for four compounds above.
COC1OC2COC(c3ccccc3)OC2C(O)C1O (centres undefined)
  VACV E9 pol inh: 100.2
CCSC1=N/C(=C\c2ccc(C(C)C)cc2)C(=O)S1
  VACV E9 pol inh: 99.6
CC(=O)Nc1ccc(S(=O)(=O)N2CCSC2c2ccccc2)cc1 (centres undefined)
  VACV E9 pol inh: 91.1
COC(CNC(=O)c1cc2c(C)nc3ccccc3c2o1)OC
  VACV E9 pol inh: 91.0

Grouped by structure: the entries above containing a furan ring, fused or not.
SMILES	VACV E9 pol inh
O=C(Sc1ccc(Oc2ccc(SC(=O)c3ccco3)cc2)cc1)c1ccco1	99.9
COC(=O)c1sccc1-c1ccc(-c2ccn(S(=O)(=O)c3ccc(Cl)cc3)n2)o1	101.0
COC(CNC(=O)c1cc2c(C)nc3ccccc3c2o1)OC	91.0

Further records:
SMILES	VACV E9 pol inh
O=C(NCCN1CCCC1)c1cc(Sc2cccc(Cl)c2)nc2ccccc12	100.2
COc1cccc2c(CCN)c[nH]c12	99.0
O=C(OCC(=O)N1CCCCC1)c1sc2ccccc2c1Cl	92.5
NC(=O)c1ccsc1N	94.6
COc1cccc(C(CC(=O)Nc2cccc3ccccc23)NC(=O)c2ccccc2)c1 (centres undefined)	96.2
O=c1[nH]c(CN2CCN(CCO)CC2)nc2ccccc12	100.1
O=C(CCn1c(=O)c2ccccc2n(CC(=O)Nc2ccccc2)c1=O)NCCc1ccccc1	96.1
COC(=O)C1SCCN1C(=O)c1cc(-c2ccc(Cl)cc2)oc1C (centres undefined)	99.2
CN(Cc1cccs1)C(=S)SCCO	96.6
O=C(COC(=O)C12CC3CC(CC(Cl)(C3)C1)C2)c1ccccc1	103.4
O=C(O)CCc1ccc(-c2ccccc2)n1CCC(=O)O	99.8
O=C(c1ccno1)c1cc(F)ccc1O	100.4
CN(C)S(=O)(=O)c1ccc(C(=O)Nc2c3c(nn2C(C)(C)C)CS(=O)C3)cc1 (centres undefined)	99.8
O=C(Nc1nc(-c2cccs2)cs1)c1ccc(N2C(=O)CCC2=O)cc1	99.6
CCC(C)CNC(=O)c1ccc(OC)c(OC)c1 (centres undefined)	85.8
O=C(NC1CCCCC1)C1CC(c2ccccc2F)=NO1 (centres undefined)	95.6
COc1ccccc1Cn1c(=S)[nH]c2cc(C(=O)NCCN3CCOCC3)ccc2c1=O	100.3
Cc1ccc(C)n1-c1ccsc1C(=O)CC#N	91.5
CCc1ccc(N2Cc3ccccc3C2=N)cc1	99.0
COC(=O)c1sc2cc(-c3ccc(F)cc3)sc2c1C	113.9
O=C1C=CC(=O)N1CC1CCCO1 (centres undefined)	103.5
O=C(c1ccc(Cn2c(=O)[nH]c3ccccc3c2=O)cc1)N1CCN(c2ccccc2)CC1	93.0
C=CCC1CCCCC1NC1CCCCC1 (centres undefined)	100.5
Cc1cc(=O)[nH]c(SCc2nc3ccccc3[nH]2)n1	99.6
Cc1ccc(NC(=O)c2[nH]c3c(c2C)C(=O)CC(c2ccc(C(C)(C)C)cc2)C3)cc1C (centres undefined)	104.0

New compounds follow.
SMILES	VACV E9 pol inh
COCC(=O)NCc1nc2ccccc2n1Cc1ccccc1C	100.6
O=C(CN1CCc2ccccc21)Nc1scc2c1c(=O)oc1ccccc12	96.3
O=c1nc(-c2ccc(Cl)cc2)oc2ccccc12	101.1
CCN(CC)C(=O)Oc1ccc2ccccc2c1Br	100.2
C=CCn1c(=N)n(CC(=O)c2ccc(OC)cc2)c2ccccc21	100.3
c1ccc(Nc2nc(Nc3ccccc3)nc(N3CCc4ccccc4C3)n2)cc1	98.2
CCc1cc2c(=O)c(Oc3ccccc3)c(C(F)(F)F)oc2cc1O	100.5
CCOC(=O)c1ccccc1NC(=O)NCc1noc2ccc(C)cc12	105.4
CCOc1ccccc1C(=O)OCCN1CCCC1=O	98.9
Cc1noc(C)c1-c1nc(-c2c(Cl)cccc2Cl)no1	100.6
COCc1[nH]c(=S)c(C#N)cc1C(=O)OC	99.2
COc1ccc(OCCC(=O)O)cc1	112.1
N#CC1C2=C(CCCC2)SC1NC(=O)c1cc2ccccc2oc1=O (centres undefined)	100.4
c1ccc(C2OCC3OC(c4ccccc4)OC3CO2)cc1 (centres undefined)	101.1
NS(=O)(=O)c1ccc(CCNC(=O)CC(c2ccccc2)c2ccccc2)cc1	97.8
Clc1nc2sccn2c1C=NCc1cccnc1	85.4
Cn1c(SCC(=O)NCc2cccnc2)nnc1-c1sc2ccccc2c1Cl	100.7
C=CCn1cnc2c1c(=O)[nH]c(=O)n2C	97.3
Cc1ccccc1OCCn1c(=S)[nH]c2ccccc21	99.5
O=C1CCN(c2ncc(C(F)(F)F)cc2Cl)CC1	96.1
CCOC(=O)c1cnn2c1nc(Oc1cc(C(F)(F)F)cc(C(F)(F)F)c1)c1ccccc12	107.2
O=S1(=O)CCN(Cc2ccccn2)CC1	110.6
CCc1ccc(CNC(=O)CCC(=O)n2ncc3ccccc32)cc1	106.0
Cc1cccc(N2CCN(C(=O)CCC(=O)N3CCOc4ccc(Cl)cc43)CC2C)c1 (centres undefined)	95.7
Cc1cc2oc(=O)cc(-c3ccccc3)c2c(O)c1CN1CCOCC1	101.7

Further entries
SMILES	VACV E9 pol inh
O=C(Nc1ccc(N2CCCCC2)cc1)Nc1cccc(Cl)c1	94.1
Cc1cc(C)nc(SCc2nc3ccccc3c(=O)n2-c2ccc(C(F)(F)F)cc2)n1	98.6
CCOC(=O)c1cccc(NC(=O)c2ccccc2Cl)c1	100.1
N#CC(C(=O)C1CCCCC1)c1nc2ccccc2[nH]1 (centres undefined)	104.0
O=C(NCc1ccco1)[C@H](Cc1ccccc1)N1Cc2ccccc2C1=O	101.7
CCOc1ccc(C(=O)/C=C(/Nc2cccc(C)c2)C(=O)O)cc1	88.3
CC(C)C(=O)NC(C)C(c1cccs1)N1CCN(C)CC1 (centres undefined)	99.3
O=C(COC(=O)C12CC3CC(CC(Br)(C3)C1)C2)Nc1ccccc1	97.5
CC(=O)n1c2ccc(C)cc2c2nc3ccccc3nc21	92.9
O=C(C(c1ccccc1)c1ccccc1)N1CCCC1	103.2
CCOc1ccc(N(Cc2cccc3ccccc23)C(=O)c2ccco2)cc1	94.6
CC(=Nc1ccc(N(C)C)cc1)C1=C(O)c2ccccc2C1=O	102.7
O=C(O)c1ccc(COc2ccc3c(c2)CCC3)o1	106.1
COc1cccc(=O)c2c(C)n(CC(=O)c3ccccc3)c(C)c12	104.0
COc1cccc(/C=C/C(=O)C2C(=O)c3ccccc3C2=O)c1	100.3
FC(F)(F)c1ccccc1NC(=S)N1CCCC1	101.1
CS(=O)(=O)c1ccc(/C=C/c2ccc(Cl)cc2)cc1	96.6
CN(C)C(=O)Oc1ccnc(SCc2ccc(Cl)cc2Cl)n1	99.3
O=C(NCCc1ccccc1)c1cccc(Nc2nc3ccccc3n3nnnc23)c1	100.3
CSc1ccc(-c2nc(CSCC(=O)N3CCCC3)c(C)o2)cc1	96.4
COc1ccc(C(=O)Cn2c(C(F)(F)F)nc3ccccc32)cc1	104.2
Cc1ccc(OCC(O)CN)c(C)c1 (centres undefined)	103.9
O=C(CSc1nnc2ccccn12)N1CCOCC1	99.8
Clc1cccc(CNCc2ccco2)c1	101.4
Nc1ncc(Cc2ccc(Cl)cc2Cl)s1	96.5
Cc1nc2ccc(C(=O)OCC(=O)c3ccc(Cl)cc3)cc2nc1C	96.1
Cc1ccccc1NC(=O)CSC1=C(C#N)C(c2ccccc2C)C2=C(CCCC2=O)N1 (centres undefined)	100.0

Compound activity from PubChem BioAssay.

The list is partial (hit frequency here may not be typical).
